# D2 agonist: agonists of human D2 dopamine receptor (beta-arrestin); DiscoveRx PathHunter D2 beta-arrestin, luminescence, 90 min; 100% = 57 uM dopamine signal; actives 0.084% (n = 360,000); activation, % (concentration not given with the values); in the data active = activation above about 40%; inconclusive = about 15% to 40%; inactive = below about 15%; further: compound concentration not given in the record; the text of the record calls up to 30% inactive
# Target sequence (P14416 whole entry, looked up): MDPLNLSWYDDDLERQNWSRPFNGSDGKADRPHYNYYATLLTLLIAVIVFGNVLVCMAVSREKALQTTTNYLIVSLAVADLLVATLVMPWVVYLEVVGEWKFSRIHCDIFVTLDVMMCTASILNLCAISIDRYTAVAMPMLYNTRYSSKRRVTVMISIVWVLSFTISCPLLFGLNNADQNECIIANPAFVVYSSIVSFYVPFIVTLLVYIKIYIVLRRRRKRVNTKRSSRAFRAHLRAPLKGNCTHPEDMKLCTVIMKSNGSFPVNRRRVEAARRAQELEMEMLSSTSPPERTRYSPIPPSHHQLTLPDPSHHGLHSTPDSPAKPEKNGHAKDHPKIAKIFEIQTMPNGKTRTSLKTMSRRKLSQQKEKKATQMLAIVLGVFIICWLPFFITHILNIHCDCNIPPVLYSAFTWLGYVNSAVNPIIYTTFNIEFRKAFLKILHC
#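 DiscoveRx PathHunter D2 beta-arrestin cells (2,100/well) attached overnight, then compound-stimulated 90 min at 37 C in HBSS/10 mM HEPES/0.1% Tween-20 buffer; beta-galactosidase complementation read by luminescence after 1 h at ambient temperature. Dopamine 57 uM final (EC100) as control.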
# D2 potentiator: potentiates the human D2 dopamine receptor allosterically; AID 624464; DiscoveRx D2 beta-arrestin cells, luminescence, 90 min; 100% = 57 uM dopamine signal; P14416; potentiation, % (test concentration not listed); actives 0.23% (n = 360,000); active = potentiation of 50% or more; inconclusive = 30% to 50%; inactive = 30% or less;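 further: compound concentration not given in the record; tested on top of an EC20 dose of dopamine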
#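 PathHunter D2 cells, attached overnight at 37 deg C, received compound in DMSO plus dopamine at EC20 (50 nM final) for 90 min at 37 deg C. Beta-arrestin recruitment was read as luminescence after 1 h with detection reagent at ambient temperature.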
# gsp ag: activates gsp, the McCune-Albright syndrome mutation; gsp mutant cells, cAMP HTRF, 30 min; control for the full effect not named in the record; Potency, µM (series often up to 76.9 µM), without a hit: top-dose activation (cAMP increase), usual class: activators; actives 0.13% (n = 340,000); AID 624287; active = well fitted activation curve with a large enough effect; inconclusive = small, poorly fitted or top-dose-only effect, or another doubt; inactive = no such curve, though single readings can be large or run the other way; cell line not stated here;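 further: phosphodiesterase inhibitor Ro 20-1724 added with compounds to block cAMP breakdown; potency means the concentration at half of the fitted maximal effect; nearly all actives have a fitted effect of over 60% in size; about a fifth of the inactives were tested at one dose only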
#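 Cells stably selected in G418 were plated at 2000/well, grown 16-24 hr, then given compounds in DMSO with the PDE inhibitor […] (300 uM solution added) for 30 min at 37C; cAMP was read by HTRF.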
# CtBP-E1A inh: blocks the CtBP interaction with E1A | AlphaScreen GST-E1A/His-CtBP binding, 1536-well; stronger effect = lower value; control for the full effect not named in the record | actives 0.49% (n = 340,000) | activity change, % (concentration not given with the values); in the data active means activity change below about -65%; inconclusive means about -30% to -65%; inactive means above about -30%; further: on the % scale 0 is the no-effect control and ±100 the full control effect
#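 In 5 uL wells, 23 nL compound meets equimolar GST-E1A and His-CtBP (5X stock 125 nM each) for 2 h, 37 °C. Beads (5X, 50 ug/mL) then 1 h, 37 °C, dark.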
# gsp antagonist: gsp mutant antagonism; gsp-mutant cells, cAMP HTRF, 30 min; control for the full effect not named in the record; Potency, µM (doses to about 76.9 µM), for the others: top-dose activity change, negative = inhibition, usual class: inhibitors; actives 0.4% (n = 340,000); active = falling curve of any shape with a large fitted effect; inconclusive = falling curve, mostly with a smaller effect; inactive = flat or rising curve; cell line not stated here;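 further: intracellular cAMP measured with PDE inhibitor Ro 20-1724 present during compound exposure; potency means the concentration at half of the fitted maximal effect; on the % scale 0 is the no-effect control and ±100 the full control effect; nearly all actives have a fitted effect of over 65% in size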
#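 Cells, 2000/well, grown 16–24 h in DMEM 10% FBS with 0.5 mg/ml G418, then compounds plus […] (300 uM addition stock), 30 min at 37C. cAMP read by HTRF (cAMP-d2 and anti-cAMP antibody-K in lysis buffer) after 30 min RT.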
# Six1-Eya2 blk: inhibitors of human Six1/Eya2 interaction | activity change, % (concentration not given with the values) | AlphaScreen GST-Six1/His-Eya2 binding, biochemical; stronger effect = lower value; control for the full effect not named in the record | actives 0.56% (n = 360,000); in the data active = activity change below about -65%; inconclusive = about -30% to -65%; inactive = above about -30%; further: on the % scale 0 is the no-effect control and ±100 the full control effect
#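 AlphaScreen with GST-Six1 and His-Eya2 (5X mix: 250 nM and 500 nM), glutathione donor and nickel acceptor beads; buffer 50 mM Tris pH 8.0, 300 mM NaCl, 1 mM TCEP; 1 h at 37 C in the dark.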
# Starred values were filed as active, the others as inactive; ? = inconclusive; . = no result given; [ ] = dose if it differs, or a comment.
SMILES,D2 agonist,D2 potentiator,gsp ag,CtBP-E1A inh,gsp antagonist,Six1-Eya2 blk
C1CCN(Cc2nnnn2C2CCCC2)CC1,0.0,-13.3,-26.9%,6.2,2.3%,2.7
Cc1cc(OCC(=O)NCc2cccnc2)c2c(C)c(C)c(=O)oc2c1,-1.7,-9.4,-1.0%,-3.7,-7.2%,3.4
CCCCCC(=O)OCc1ccc(C2=CC(=O)CC(C)(C)C2=O)cc1,-9.4,0.5,-3.3%,2.0,.,-6.5
CCCCCCn1c(N2CCCC2)nc2c1c(=O)[nH]c(=O)n2C,-4.3,-3.6,17.9%[15.4 µM],-6.9,6.5%,-17.0
O=C(NCc1cccc2[nH]ccc12)C1CCC(=O)N(CCc2ccc(Cl)cc2)C1 (centres undefined),-0.3,1.1,-29.2%,-1.0,-6.6%,-8.4
C=CCn1c(Cc2cccs2)nnc1SCC(=O)Nc1cc(OC)cc(OC)c1,-0.4,-1.2,3.0%,-2.3,-3.1%,-2.8
COC(=O)CN(c1cc(Cl)ccc1OC)S(=O)(=O)c1ccc(OC)c(OC)c1,-0.1,-9.2,-1.0%,0.8,-15.4%,1.8
CC(=O)Nc1cc(-c2ccc(S(C)(=O)=O)cc2)cn2c(-c3ccc(F)cc3)cnc12,-6.7,-10.4,.,-6.1,.,-11.2
O=C(O)CC(CNC(=O)C1CCCN1C(=O)OCc1ccccc1)c1ccccc1 (centres undefined),-15.3,-4.7,8.5%,7.4,1.9%,6.4
CC(=O)c1c(O)c(C)c(O)c2c1OC1=CC(=O)/C(=C(/C)N)C(=O)C12C (centres undefined),-3.3,-11.2,?,-1.1,.,18.6
CCOc1ccc(C(=O)NNC(=O)CNC(=O)c2ccc(C)s2)cc1OC,0.3,2.4,-11.0%,5.6,6.2%,2.1
O=C1NCCN1CCNS(=O)(=O)c1ccc(F)cc1,-2.3,-16.1,?,1.5,10.9%,4.6

# Ordered by value in gsp ag (high to low): four of the compounds above.
smiles	gsp ag
C=CCn1c(Cc2cccs2)nnc1SCC(=O)Nc1cc(OC)cc(OC)c1	3.0%
COC(=O)CN(c1cc(Cl)ccc1OC)S(=O)(=O)c1ccc(OC)c(OC)c1	-1.0%
CCCCCC(=O)OCc1ccc(C2=CC(=O)CC(C)(C)C2=O)cc1	-3.3%
C1CCN(Cc2nnnn2C2CCCC2)CC1	-26.9%

# Additional compounds:
SMILES,D2 agonist,D2 potentiator,gsp ag,CtBP-E1A inh,gsp antagonist,Six1-Eya2 blk
COc1ccccc1C(=O)COC(=O)c1c(-c2ccccc2)noc1C,-2.5,3.2,13.7%[15.4 µM],49.0,-25.7%,28.7
CCc1ccc(-c2cc(C)no2)cc1S(=O)(=O)NCCc1ccc(OC)c(OC)c1,0.4,0.7,-53.8%[inhibitor],-23.5,-5.1%,-0.6
O=C(Cc1cccs1)Nc1ccc(-c2nnn(CC(=O)N3CCOCC3)n2)cc1,-0.4,-11.8,5.7%,0.7,-3.8%,1.9
CCc1ccc(O)c(N=Cc2cccc(C)c2O)c1,4.5,25.0,-1.5%,-9.7,-10.1%,-0.8
COc1ccc(N2CCN(c3ccc(N)cc3C#N)CC2)cc1,-5.7,-31.2,-0.9%,-6.6,-2.0%[15.4 µM],-17.1
COc1ccc(C2=CC(c3ccc(C)cc3)n3nnnc3N2)cc1 (centres undefined),-6.7,-27.6,26.4%,41.7,?,3.3
CC(C)CSc1nc2ccccc2n1CC(N)=O,-0.9,-4.3,?,1.3,2.2%,4.7
CCN(CC)C(=O)CSc1ccc(C(F)(F)F)cc1[N+](=O)[O-],-0.1,-13.3,7.8%,-0.6,2.1%,-0.6
Cc1cc(NC(=O)CCC(=O)N(Cc2ccc(F)cc2)C(C(=O)NC2CCCC2)c2ccco2)no1 (centres undefined),3.1,1.4,-9.8%[15.4 µM],-16.3,.,-0.6
CCCC(=O)Nc1nnc(SCC(=O)Nc2ccc3c(c2)OCCO3)s1,-4.3,0.6,4.4%[15.4 µM],12.4,-10.8%,1.8
CCOC(=O)c1cc(-c2ccc(F)cc2)n(CC(=O)NCc2ccccn2)c1C,3.5,-9.6,3.4%,.,1.6%,-1.8
COc1ccc(OC)c(-n2c(SCC(=O)NCc3ccco3)nnc2-c2c[nH]c3ccccc23)c1,-0.1,-2.7,?,0.1,-14.6%,-19.3
CCOc1ccccc1C1CC(=O)NC2=C1C(=O)CCC2 (centres undefined),-1.0,10.3,-5.7%,-3.8,7.2%,9.3
COc1ccc(C2CC(c3ccccc3OC(C)=O)=NN2C(=O)/C=C/c2ccccc2)cc1 (centres undefined),-1.8,-29.1,-7.1%,-7.5,?,-18.8
O=C(NCc1ccco1)c1csc2c1CCCCC2,-1.5,-16.3,-27.7%,-8.2,-13.0%,-3.0
COc1cc(Cl)cc(/C=N\NC(=O)c2ccc3c(c2)OCO3)c1O,-3.1,-33.3,2.3%,?,.,-88.4*
CC(=O)Nc1ccc(S(=O)(=O)N2CCN(CC(=O)N3CCOCC3)CC2)cc1,-4.4,-13.1,-17.5%[15.4 µM],0.9,18.1%,5.5
CC(=O)Nc1ccc(-c2csc(NC(=O)CCNC(=O)c3ccco3)n2)cc1,-2.0,2.5,-4.1%,-0.3,-10.6%,4.0
O=C(Nc1cccnc1)c1cc2cc(Br)ccc2oc1=O,-2.0,1.1,3.5%[15.4 µM],5.4,-11.3%,17.5
CC(C)C[C@@H]1NC(=O)[C@H](C(C)C)NC(=O)c2cc([N+](=O)[O-])cc(I)c2OCC[C@@H](C(N)=O)NC1=O,-3.8,-12.7,-43.5%[inhibitor],.,4.3%,6.5
COCc1cc(=O)[nH]c(SCC(=O)N2CCOCC2)n1,2.3,-2.9,17.9%,5.9,10.3%,5.0
COc1cc(/C=C/c2ccc3c(Br)cc(Br)c(O)c3n2)ccc1O,-1.2,-5.4,21.9%,.,-8.0%,-3.2
O=C(NCCCN1CCN(c2ccccc2F)CC1)C1CCC(=O)N1C1CCCC1 (centres undefined),4.2,-4.5,?,0.1,5.9%,-7.0
CCN1CCN(c2ccc(S(=O)(=O)N3CCCCC3)cc2NC(=O)c2ccccc2)CC1,0.8,-3.5,22.5%[15.4 µM],-3.1,3.3%,4.7
COC(=O)N1N=C(c2ccc(Br)cc2)CC1(O)C(F)(F)F (centres undefined),-1.5,-1.7,-2.5%,2.7,-7.5%,4.4
c1ccc(-n2nnnc2-c2cccnc2)cc1,-0.7,-0.9,-4.3%[15.4 µM],4.2,-5.4%,17.1
O=C(O)Cc1ccc(NC(=O)c2ccc(NC(=O)c3ccco3)cc2)cc1,-2.0,-3.8,-2.5%,3.4,1.7%,-8.3
CNC(=O)C[C@H]1C(=O)N(CCc2ccccc2)C[C@@H]1CSC,-5.9,5.0,-26.6%,2.4,.,-3.0
O=c1[nH]c2ccsc2c(=O)n1-c1ccc(F)cc1,-3.2,-4.1,-6.9%,0.5,7.3%,1.5
O=C1c2cccc3cccc(c23)C(=O)N1CCO,1.2,-1.5,?,23.2,.,7.8
COc1ccc(NC(=O)CN2C(=O)NC3(CCCCCCC3)C2=O)cc1,2.0,-2.9,7.2%[15.4 µM],-3.7,7.0%,-0.3
O=CN1CCN(C(=O)c2ccc([N+](=O)[O-])cc2)CC1,1.6,1.2,-13.1%[15.4 µM],4.8,-9.5%,-5.4
CCn1c(C)nc2cc(S(N)(=O)=O)ccc21,-0.4,-5.1,-1.4%[15.4 µM],0.0,11.2%,5.9
O=S(=O)(c1ccccc1F)N(Cc1ccco1)Cc1nnc(-c2ccccc2Br)o1,4.2,21.6,-2.5%,1.9,-23.3%,-7.8
CC(C)Oc1ccc(S(=O)(=O)N2CCCCC2)cc1NC(=O)C1CCC1,-1.3,-11.9,12.5%,2.9,-1.6%,1.0
C=CCNC(=O)CSc1nc2sc3c(c2c(=O)n1CCCOC)CCC3,-4.9,-1.2,5.2%,-7.8,-5.2%,0.1
C/C(=N\NC(=O)c1ccn(C)n1)c1ccco1,-4.0,-2.3,-20.6%[15.4 µM],-2.4,-4.7%,2.1
COCCCN=Cc1c(C)[nH]n(-c2ccc(Br)c(C)c2)c1=O,-0.5,16.9,0.8%,-0.6,-19.9%,2.7
Cc1ccc(-n2nnnc2Sc2nc([N+](=O)[O-])nn2C)cc1C,0.4,?,0.0%,6.0,-9.0%,-1.4
CCCc1cc(C(=O)N2CCCN(C)CC2)cs1,-0.3,10.7,13.5%,5.5,4.8%,1.2
Cc1ccc(C)c(S(=O)(=O)NCc2cccnc2)c1,-1.6,-5.3,?,10.1,0.1%,6.0
CCCc1nnc(NC(=O)CS(=O)(=O)c2ccc(C)cc2)s1,0.5,-0.9,-21.7%,7.3,-4.3%,-2.9
CCc1ncc(CN2CCCC(C(=O)Nc3cccc(-c4ccc(F)cc4)c3)C2)cn1 (centres undefined),0.7,-19.5,-2.1%[15.4 µM],-1.7,-8.3%,-2.4
CC(C)NC(=O)C(c1ccc(F)cc1)N(C(=O)CCC(=O)Nc1ccccn1)C1CCCCC1 (centres undefined),-6.0,-7.4,7.0%[15.4 µM],-2.0,7.2%,5.2
CCCCN1C(=O)NC2NC(=O)NC21 (centres undefined),-0.4,4.2,-14.0%,-0.1,9.1%,6.0
Cc1ccccc1C(=O)N1CCc2cc(-c3csc(NC(=O)CN4CCCC4)n3)ccc21,-4.9,7.7,0.0%[15.4 µM],-12.5,-7.2%,5.0
COc1ccc(C(=O)NCc2nnc(SCC(=O)NCCc3ccccc3)o2)cc1,-1.2,-6.1,5.3%,.,-1.3%,-9.4
CC(C)N(C(=O)CC1ON(C)C(=O)N1c1ccc(Cl)cc1)C(C)C (centres undefined),-3.8,-6.1,-29.5%,1.8,-3.2%,3.1
CCN1C(=O)[C@H]2[C@@H](c3ccc(OC)cc3)N3C(=O)CN(CCOC)C(=O)[C@@]3(C)[C@H]2C1=O,-1.6,-8.8,7.7%,.,4.6%,-5.9
CCc1cc2c(SCC(=O)NC3CCS(=O)(=O)C3)ncnc2s1 (centres undefined),1.3,-1.1,-6.9%,11.1,-4.9%,22.0
CC1CCN(C(=O)CCNS(=O)(=O)c2ccc(Br)cc2)CC1,-1.7,-3.2,-28.0%,1.4,-2.4%,-1.0
CCOC(=O)N1CCC(NC(=O)c2cc(C)c3c(C)nn(-c4ccccc4)c3n2)CC1,-1.6,3.3,?,1.2,39.7%[activator],-0.5
O=C(c1ccc(C(F)(F)F)cc1)C1CCCN(C(=O)CCc2cnccn2)C1 (centres undefined),-0.5,-1.7,0.0%,4.1,7.4%,5.0
O=C(CNc1ccc2ccccc2c1)N/N=C/c1ccc([N+](=O)[O-])o1,7.9,27.4,-23.9%,-1.9,8.5%,-3.4
